# NPYLR7 agonist: mosquito NPYLR7 agonism. HEK293T NPYLR7/Galpha15, GCaMP6s calcium fluorescence. activation, % at 10 µM. AID 1259423. hit rate 0.15% among 270,000; in the data active = activation above about 40%;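 also: 0% = vehicle and 100% = reference agonist at the receptor; some compounds past the cut are filed as inactive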
# NPYLR7 agonist max-min: further read-out of NPYLR7 agonist, marked with its call; activation, %; measured here: Max-Min RFU normalised activation; some inactives read as strong as hits;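 span of the calcium signal over five minutes; 0% = vehicle and 100% = native peptide agonist; compound fluorescence can raise it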
# The depositor's hits bear a star; & = joins results of further samples. These rows are one share of the data (hit frequency here may not be typical).
SMILES,NPYLR7 agonist,NPYLR7 agonist max-min
O=C1C(Nc2ccc(Br)cc2)=C(N2CCOCC2)C(=O)c2ccccc21,2,7
COC(=O)c1ccc(-c2noc(CN(C)C(C)c3nc(C)sc3C)n2)cc1 (configuration not stated),9,7
COc1ccccc1Oc1cc(C(F)(F)F)nc(SCc2cccc(Cl)c2)n1,3,13
Nc1ccc2c(c1)NC(=O)CS2,-3,-7
COc1ccccc1C(=O)N(Cc1ccco1)Cc1c(-c2ccccc2)noc1N1CCCCC1,10,14
Cc1cc(C)n2c(c1)cc(=O)c1ccccc12,7,6
COc1cccc(OCc2ccccc2)c1C(=O)NCCc1ccccc1F,-6,-15
COCCOC(=NCCN1CCOCC1)NC(=O)c1ccc(Cl)c(Cl)c1,-7,1
CN(C)CCN(Cc1ccc(Cl)cc1)C(=O)/C=C/c1cnn(C)c1,12,6
CC(Oc1cccc(Cl)c1)C(=O)N1CCOC(COCc2ccc(F)cc2Cl)C1 (configuration not stated),0,13
Cc1cc(C)n(-c2cccc(CN(C)C(=O)c3cn(CC4CCCO4)nn3)c2)n1 (configuration not stated),7,6
c1csc(-c2nc3ncccn3c2NC2CCCC2)c1,9,1
CCC(NC(=O)c1cc2n(n1)CCN(C(C)=O)C2)c1nc(C)c(C)s1 (configuration not stated),-1,-2
Cc1ccc(N(CCCCN2C(=O)c3ccccc3C2=O)C(=O)c2ccco2)cc1,1,-2
O=C(NCC1(O)CCNC1)C1CCN(C(=O)c2ccccn2)CC1 (configuration not stated),4,2
Cc1ccc(S(=O)(=O)Nc2cccc3ccc[n+](C)c23)cc1,1,27
O=C(CC12CC3CC(CC(C3)C1)C2)NNS(=O)(=O)c1cc(F)ccc1F,5,3
COc1cc(OC)cc(C(=O)Nc2cc(=O)n(C)c(=O)n2C)c1,11,14
CCc1nc2ccc(C(=O)NCC3CCCCC3)cn2c1N(C)CC,3,-13
Cc1c(C(=O)O)nn(C(C)(C)C)c1Oc1ccc([N+](=O)[O-])cc1F,15,5

# Reprinted from the part before: seven entries, then new ones.
SMILES,NPYLR7 agonist,NPYLR7 agonist max-min
Cc1ccc(N(CCCCN2C(=O)c3ccccc3C2=O)C(=O)c2ccco2)cc1,1,-2
O=C(NCC1(O)CCNC1)C1CCN(C(=O)c2ccccn2)CC1 (configuration not stated),4,2
Cc1ccc(S(=O)(=O)Nc2cccc3ccc[n+](C)c23)cc1,1,27
O=C(CC12CC3CC(CC(C3)C1)C2)NNS(=O)(=O)c1cc(F)ccc1F,5,3
COc1cc(OC)cc(C(=O)Nc2cc(=O)n(C)c(=O)n2C)c1,11,14
CCc1nc2ccc(C(=O)NCC3CCCCC3)cn2c1N(C)CC,3,-13
Cc1c(C(=O)O)nn(C(C)(C)C)c1Oc1ccc([N+](=O)[O-])cc1F,15,5
Cc1ccc(S(=O)(=O)Nc2nc3ccccc3nc2NCCCOC(C)C)c(C)c1,-12,-17
CCCc1nn(-c2ccc(Cl)c(Cl)c2)c(CC)c1C(=O)NCc1ccncc1,19,24
CCOC(=O)C(c1ccc(OC)c(OC)c1)C1C=CC(NC(=O)c2sccc2Cl)C1 (configuration not stated),0,-2
CC(C)c1nnc2sc(C3CCOC(C)(C)C3)nn12 (configuration not stated),-2,18
O=S(=O)(NCCc1cccc(Cl)c1)N1CCCCCC1,-1,-5
Cc1ccccc1C(CC(=O)NCc1ccncc1)c1ccccc1 (configuration not stated),4,-8
Cc1ccc(-c2csc(NC(=O)CSCc3c(C)noc3C)n2)cc1,4,1
CCn1c(C2CCCNC2)nn(Cc2cc(OC)ccn2)c1=O (configuration not stated),12&-3,9&-3
CC(=O)Nc1ccc(N2C(=O)CC3CS(=O)(=O)CC32)cc1Cl (configuration not stated),6,3
Cc1cc(C)cc(C(=O)NCCn2cc(SCC(=O)N3CCOCC3)c3ccccc32)c1,-1,-2
Cc1nnnn1-c1cccc(NCC(=O)Nc2ccccc2F)c1,-1,-2
Cc1csc(C(C)NC(=O)Nc2cccc(C(F)F)c2)n1 (configuration not stated),4,1
Cc1cc(C)c2c(CCCC(=O)O)c(-c3ccccn3)[nH]c2c1,-7,-15
CN(CC(=O)NCCc1ccccc1)S(=O)(=O)Cc1ccc(C#N)cc1,-2,-5
C#CC(C)(CC)OCC(O)CN1C(C)(C)CC(O)CC1(C)C (configuration not stated),-2,9
CC(C)c1cc(N2CCN(c3ccccc3F)CC2)nc(SCc2ccc(C(=O)NCc3ccccn3)o2)n1,8,9
CCOC(=O)C1=C(C)NC(C)=C(C(=O)OCC)C1c1cc(Cl)cc(Cl)c1OC,8,3
CS(=O)(=O)CCNc1ccnc2ccc(Br)cc12,-24&-4,-22
O=S(=O)(c1cccc2c(I)cccc12)N1CCCNCC1,2,16
C#CCN(C(=O)c1ncoc1C(C)C)C1CCS(=O)(=O)C1 (configuration not stated),2,0

# Copied from above for reference:
SMILES,NPYLR7 agonist,NPYLR7 agonist max-min
CS(=O)(=O)CCNc1ccnc2ccc(Br)cc12,-24&-4,-22
O=S(=O)(c1cccc2c(I)cccc12)N1CCCNCC1,2,16
C#CCN(C(=O)c1ncoc1C(C)C)C1CCS(=O)(=O)C1 (configuration not stated),2,0

# Carrying on:
SMILES,NPYLR7 agonist,NPYLR7 agonist max-min
COc1ccc(OC)c(S(=O)(=O)Nc2ccc(SC#N)cc2C)c1,0,-5
Cc1ccc(C(C)Cc2c(-c3ccccc3)ncn2CCc2cnccn2)o1 (configuration not stated),4,2
CCn1c(CN(C)C(=O)Nc2cc(F)ccc2F)nc2ccccc21,0,7
O=C1NC2(CCSC2)C(=O)N1Cc1sc2ccccc2c1Cl (configuration not stated),5,1
C#CCOCC(O)CN(CCC(C)C)Cc1ccsc1 (configuration not stated),-1,7
COc1ccc(NC2(C(=O)N3CCn4cncc4C3)CCCC2)cc1,6,5
CN(CC1CCCN(CCc2cccc(C(F)(F)F)c2)C1)C(=O)C1CCCCC1 (configuration not stated),15,8
CCOC(=O)C1(c2csc(N)n2)COC(=O)C1 (configuration not stated),-2,-1
CCCn1nccc1C(=O)NCc1cc(F)cc2c(C)c(C)[nH]c12,24,8
Cc1cccc(N(CCOC(=O)c2ccccc2)C2=NS(=O)(=O)c3ccccc32)c1,6,6
CNS(=O)(=O)c1cc(-c2nnc(Nc3cccc(C)c3)c3ccccc23)ccc1C,-16,-17
Cc1ccc(Nc2nc(-c3cnc(N4CCN(C)CC4)nc3C)cc(=O)[nH]2)cc1C,1,-1
CC(C)Oc1c(-c2ccco2)c(=O)c1=O,-6,-8
O=C(Cn1nc2c(c1NC(=O)c1cc3ccccc3o1)CSC2)NCc1ccc(F)cc1,-5,-3
Cc1noc(C)c1CN1CCN2C(C(=O)Nc3cccnc3)=COC2=NC1=O,7,8
O=C(NCCNC(=O)[C@H]1CCCN1C(=O)C(c1ccccc1)c1ccccc1)c1ccc(F)cc1,1,20
CC(C)N(C)S(=O)(=O)c1ccc(NC(=O)CNC(C)(C)C)cc1,1,2
CSc1cccc(CNC(=O)c2ccc(S(N)(=O)=O)cc2)c1,10,7
C=CCN(CC(=O)N1CCc2sccc2C1c1ccc(Cl)cc1Cl)C(=O)CCCCCCCC (configuration not stated),22,25
CSc1ccccc1C(=O)N1CCC(N2CCC(C(=O)NC3CC3)CC2)CC1,-8,-10
c1ccc2sc(N3CCN(Cc4cc5n(n4)CCCNC5)CC3)nc2c1,2,-1
COc1cc(/C=C2/CCS(=O)(=O)c3ccccc3C2=O)cc(OC)c1,2,14
Cc1nn(C)c(=O)c2c1cnn2-c1ccccc1,7,4
C#CCn1c(=O)c2c(OCCC)ccnc2n(C)c1=O,0,0
O=C(NCC1COc2ccccc2O1)C(=O)c1cn(CC(=O)N2CCOCC2)c2ccccc12 (configuration not stated),-4,-3
COc1ccc(CN2CCN(c3cc(Oc4ccc(OC)cc4)ncn3)CC2)cc1,-7,0
COc1ccc(CNC(=O)c2cccc(N3CCCC3=O)c2)cn1,1,3
C=CC(C)(O)CN(Cc1c(-c2ccccc2)nn(C)c1Oc1ccccc1Cl)CC1CCCO1 (configuration not stated),9,13
CCN(Cc1ccc2c(c1)OCO2)S(=O)(=O)c1cn(C)c(=O)n(C)c1=O,-2,-5
O=C(CN1CCCCC1)NC1CCc2cc3c(cc21)CCC3 (configuration not stated),2,0
CCCN1CCN(c2ccc(C(=O)N(C)Cc3ccc4ccccc4n3)cn2)CC1,5,2
Cc1ccc2nc(CSc3nc4scc(-c5cccs5)c4c(=O)[nH]3)cc(=O)n2c1,1,-2
Cc1cc(OCC(=O)NNC(=O)COc2cc(C)c(Cl)c(C)c2)cc(C)c1Cl,1,-1
CCc1nnc(CNC(=O)c2cnn(CC)c2C)s1,3,2
NC(=O)C1CCN(c2ccc3cccc(OCc4ccc(Cl)cc4)c3n2)CC1,5,3
COc1ccccc1C(=O)Nc1ccc2c(c1)CN(C(=O)c1ccsc1)CC2,14,6
CC(C)CN(C)C(=O)Nc1ccccc1CN1CCOCC1,8,3
COc1ccccc1N/C=C(/Br)C(=O)C(F)(F)F,5,2
Cc1cc(C)n(-c2ccc(NC(=O)C3CCN(C(=O)CCc4cnn(C)c4)CC3)cc2)n1,7,5
CCCCCCc1ccc(C(=O)N2CCC(c3ccc(F)cc3)CC2)cc1,-2,-11
CC1(C(=O)NCc2ccccn2)CCN1C(=O)Cc1ccsc1 (configuration not stated),7,6
NC(=O)COc1cccc(-c2ccccc2OC(F)(F)F)c1,0,-3
CC1=NOC(C(=O)NCCCc2nc3ccccc3s2)C1 (configuration not stated),27,25
CC(C)OCc1nnc(SCC(=O)O)n1C,2,-2
COc1cc(OC)c2[nH]c(C(=O)N3CSCC3C(=O)N3CCOCC3)cc2c1 (configuration not stated),2,2
CC1(C)CC2CC(C)(CN2CC(C)(C)NS(=O)(=O)c2cccs2)C1 (configuration not stated),2,12
Cc1csc2cc(C(=O)NC3CC(C)CC(C)(C)C3)cnc12 (configuration not stated),-2,-5
O=C(c1ccco1)N(Cc1cccc(C(F)(F)F)c1)CC1CC(c2ccc(F)cc2)=NO1 (configuration not stated),10,20
CCOC(=O)c1ccc(NC(=O)N2CCC3(CC2)SCCN3C(=O)CCc2ccccc2)cc1,0,6
Cc1ccc(C(c2ccccn2)N(C)S(=O)(=O)c2cnc[nH]2)cc1 (configuration not stated),1,-14

# More records follow:
SMILES,NPYLR7 agonist,NPYLR7 agonist max-min
Cc1ccc(C2=N/C(=C/N3CCOCC3)C(=O)O2)cc1,-9,-10
Cc1cc(C)c2sc(N3CCN(C(=O)c4ccno4)CC3)nc2c1,-5,-9
Cc1nc(-c2ccncc2C(=O)N2CCCC2C2CCCN2C)no1 (configuration not stated),-12,-10
CC(C)[N+]1(C)C2CCC1CC(OC(=O)C(CO)c1ccccc1)C2 (configuration not stated),-2,-7
CC12CCC(C(=O)N3CCOCC3)(CC1=O)C2(C)C (configuration not stated),11,9
COc1ccccc1N1CCN(c2ccc(NC(=O)CC(C)C)cc2C(=O)N2CCCCC2)CC1,-4,5
Cc1nc(CCNC(=O)CC2C(=O)NCCN2Cc2ccoc2)sc1C (configuration not stated),11,3
CCn1cc(C(CC(=O)NCCCOC)c2ccc3c(c2)OCO3)c2ccccc21 (configuration not stated),1,13
Cc1cccc(NC(=O)c2csc3nc(-c4ccccc4)cn23)n1,1,-1
CC(C)(C)CC(=O)Nc1ccc(-n2ccnc2)nc1,-2,-2

# Rewritten with values under each structure: part of the list above.
# Order of values – NPYLR7 agonist	NPYLR7 agonist max-min
- Cc1ccc(C(c2ccccn2)N(C)S(=O)(=O)c2cnc[nH]2)cc1 (configuration not stated)
→ 1	-14
- Cc1ccc(C2=N/C(=C/N3CCOCC3)C(=O)O2)cc1
→ -9	-10
- Cc1cc(C)c2sc(N3CCN(C(=O)c4ccno4)CC3)nc2c1
→ -5	-9
- Cc1nc(-c2ccncc2C(=O)N2CCCC2C2CCCN2C)no1 (configuration not stated)
→ -12	-10
- CC(C)[N+]1(C)C2CCC1CC(OC(=O)C(CO)c1ccccc1)C2 (configuration not stated)
→ -2	-7
- CC12CCC(C(=O)N3CCOCC3)(CC1=O)C2(C)C (configuration not stated)
→ 11	9
- COc1ccccc1N1CCN(c2ccc(NC(=O)CC(C)C)cc2C(=O)N2CCCCC2)CC1
→ -4	5

# The listing continues.
SMILES,NPYLR7 agonist,NPYLR7 agonist max-min
O=S(=O)(Nc1ccc2c(c1)OCO2)c1cc(Cl)ccc1Cl,-1,-2
Cc1cccc(C(=O)NC(C)C(=O)N(C)Cc2ccc(N(C)C)cc2)c1 (configuration not stated),-5,-5
COc1cc(-c2cnn3c(C)c(C(=O)N4CC=CCC4)cnc23)cc(OC)c1OC,8,-1
NC(=O)c1cnc2n1CCN(C(=O)COCc1ccccc1)C2,-3,-3
CCc1ccc(C(=O)Nc2c(-c3ccc(C)cc3)nc3cc(C)ccn23)cc1,0,4
COCCNC(=O)c1cc(-c2ccc(Cl)cc2)n(-c2ccc(F)cc2)c1C,-6,-1
O=C(NC1CCCCC1)C1CCCN(S(=O)(=O)c2cnc[nH]2)C1 (configuration not stated),6,8
CC1=C(N2C(=O)C(=Cc3cccc([N+](=O)[O-])c3)SC2=S)C(=O)N(c2ccccc2)C1C (configuration not stated),-4,-8
COc1ccsc1C(=O)N1CCCC(c2n[nH]c(C)n2)C1 (configuration not stated),3,0
Cc1cccc(-c2nnc(NC(=O)C3CCCN3C(=O)Nc3c(Cl)cccc3Cl)s2)c1 (configuration not stated),19,22

# Compound activity: PubChem, Fisher Drug Discovery Resource Center
